# Rango dissoc inh = inhibition of RanGTP-driven Rango-importin beta dissociation; Biochemical FRET Rango-importin beta, RanGTP-induced dissociation; Potency, µM (doses to about 46.1 µM), inactives show top-dose activity change, negative = inhibition; 0.071% of 340,000 active; active means falling FRET ratio curve, often poorly fitted, with flat reads before Ran was added; inconclusive means other falling curves, or compound fluorescence or quenching; inactive means flat or rising ratio curve;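 note: potency is the fitted concentration of half-maximal effect; % of control where 0% means no effect; nearly all actives have a fitted effect of over 45% in size; -100% = wells without RanGTP and RCC1; the record marks most hits as doubtful in a second field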
#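 Rango (0.1 uM)–importin beta (0.25 uM) complex; RanGTP-RCC1 trigger; 45 min RT; CFP/YFP FRET read.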
# miR-21 reporter = raises the signal of a miR-21 reporter; HeLa miR-21 FLuc reporter, luciferase, 48 h; Potency, µM (top dose mostly 38.3 µM), without a hit: at the top dose reporter change, positive = more light; 340,000 tested, under 10 active; active = well fitted rising curve with a large enough effect; inconclusive = small, poorly fitted or top-dose-only effect; inactive = no such curve, though single readings can be large or run the other way;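 note: % of control where 0% means no effect; miR-21 action dims this reporter so a rising signal means less miR-21 action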
#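 HeLa miR-21-FLuc reporter line, endogenous miR-21; 2000 cells/well in DMEM/10% FBS; compound titration up to ~40uM final, 48 h, 37 degree Celsius; luciferase detection reagent, 15 min lysis, CCD luminescence.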
# Rango-impB inh = prevents formation of the Rango-importin beta complex | Q14974 | Rango CFP/YFP FRET sensor + importin beta, 45 min | Potency, µM (titrated, usually from 92.2 µM), without a hit: top-dose inhibition of complex formation | 0.031% of 340,000 active | AID 540263; active = rising FRET ratio curve, often small or poorly fitted; inconclusive = mostly compound fluorescence or quenching in the first reads; inactive = flat curves in all reads;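 note: potency is the fitted concentration of half-maximal effect; 0% = DMSO wells and 100% = buffer wells lacking importin beta; nearly all actives have a fitted effect of over 15% in size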
#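 Inhibition scored from the CFP 486 nm/YFP 530 nm FRET ratio 45 min after adding 0.125 microM importin beta to 50 nM Rango biosensor preincubated 5 min with compound (room temperature, PBS with DTT, Tween-20, BSA). No-importin wells as positive control.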
# GLA inh pH 4.5 = inhibitors of human alpha-galactosidase A at pH 4.5. P06280. 230,000 tested, under 10 active. purified enzyme, 4-MU-alpha-Gal fluorescence, pH 4.5. AID 1467. activity change, negative = inhibition, % at 105 µM; inconclusive = small, poorly fitted or top-dose-only inhibition, or a rising curve; inactive = flat fitted curve, though single readings scatter; no compound was filed as active;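 note: 0% = full activity with enzyme and -100% = basal without enzyme; dose as in the result columns while the protocol names 77 µM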
# Target sequence (P06280 whole entry, looked up): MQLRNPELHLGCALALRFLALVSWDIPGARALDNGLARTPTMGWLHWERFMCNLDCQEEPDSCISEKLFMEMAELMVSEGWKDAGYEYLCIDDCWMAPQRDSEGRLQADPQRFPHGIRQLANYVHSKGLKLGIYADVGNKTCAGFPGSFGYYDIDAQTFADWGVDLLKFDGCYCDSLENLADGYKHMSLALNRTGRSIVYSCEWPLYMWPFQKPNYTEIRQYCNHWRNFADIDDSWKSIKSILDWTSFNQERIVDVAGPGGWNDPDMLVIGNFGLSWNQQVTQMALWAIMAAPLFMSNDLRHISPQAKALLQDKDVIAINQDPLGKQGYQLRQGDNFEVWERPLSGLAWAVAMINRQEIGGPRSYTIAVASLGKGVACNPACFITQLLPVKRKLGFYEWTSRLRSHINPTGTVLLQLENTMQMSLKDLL
# * marks the source's active call; other numbers are inactive results; ? = inconclusive; · = not tested or not shown; & = joins results of further samples; [ ] = remark or other dose.
SMILES,Rango dissoc inh,miR-21 reporter,Rango-impB inh,GLA inh pH 4.5
COC(=O)c1ccc(NC2CC(=O)N(c3ccccc3C)C2=O)cc1 (stereo unspecified),2%,0%,-4.3%,-5
CC(=O)Nc1cc(-c2ccccc2)nn1Cc1ccc(Cl)cc1,-11%,-11%,4.2%,-26
CC(C)c1ccc(OCc2nnc(SCC(=O)N3CCCCC3)o2)cc1,-5%,-11%,-2.2%,·
O=C(CNC1CCCCCC1)Nc1ccc(N2CCCC2)cc1,·,-2%,·,6
Cc1ccc(C)c(C(=O)CSc2nc(C)cc(=O)[nH]2)c1,-11%,-11%,-0.7%,·
CCOc1ccccc1OCCC(=O)Nc1ccc2c(c1)OCO2,3%,·,1.0%,·
O=c1[nH]c([N+](=O)[O-])nn1C(c1ccccc1)c1ccccc1,-2%,3%,-0.5%,·
CCOC(=O)N1CCC(=NNc2ncc(C(F)(F)F)cc2Cl)CC1,0%,2%,-2.7%,-3
COc1cccc(OCc2cc(C(=O)N(C)C3CC(C)(C)NC(C)(C)C3)no2)c1,-13%,0%,5.4%,·
Clc1ccc(-c2cn3c(n2)CCC3)cc1,-11%,-30%,1.7%,6
S=c1[nH]c2ncccc2o1,-10%,3%,-0.2%,-4
CCOC(=O)C(CC)n1nc(C)n2c(cc3occc32)c1=O (stereo unspecified),10%,-4%&-1%,-0.3%,4
C=CCN(c1ccccc1)S(=O)(=O)c1cccc(C(=O)N2CC(C)CC(C)C2)c1 (stereo unspecified),2%,25%,-0.8%,·
O=C(CSc1nc2ccccc2[nH]1)NCc1ccc(F)cc1,1%,-17%,-1.4%,-3
Cc1ccc(S(=O)(=O)n2ccc3c(OCCOCCSCC(NC(=O)OC(C)(C)C)C(=O)O)cccc32)cc1 (stereo unspecified),1%,-9%,0.6%,·
COc1c2c(nc3ccccc13)OC(C(C)(O)CO)C2 (stereo unspecified),0%,-2%,0.2%,-12&1&-3
CC(C)NS(=O)(=O)c1ccc(NC(=S)NC(=O)c2ccc(-c3ccccc3)cc2)cc1,-1%,7%,4.6%,4
CC(C)(C)[C@@H]1COC(=O)[C@H](Cc2ccc(F)cc2)C/C=C\C[C@H](CC(=O)N(CCO)Cc2ccccc2)C(=O)N1,-7%,·,?,·
CCN(c1ccccc1)S(=O)(=O)c1cccc(C(=O)NCC(c2ccco2)N2CCCC2)c1 (stereo unspecified),-19%,8%,0.5%,·
CCCCN(C)C(=O)c1cn(C)c2ccc(S(=O)(=O)N(C)C)cc2c1=O,1%,-6%,0.5%,4
CN(CC(=O)Nc1cc(Cl)cc(Cl)c1)Cc1cccs1,-7%,-2%,0.7%,·
CC1CN(C(=O)COC(=O)c2cccc(NS(=O)(=O)c3ccccc3)c2)CC(C)O1 (stereo unspecified),-3%,·,-0.5%,·
CCCCCOc1ccc(NC(=O)C(=O)NCCC2=CCCCC2)cc1,-1%,-1%,-1.7%,6
CN1CCN(c2nc(-c3cc4ccccc4o3)cs2)CC1,-6%,-65%,-0.1%,1
O=C(c1ccc(Cl)c(S(=O)(=O)N2CCOCC2)c1)N(Cc1nnc(-c2ccccc2Cl)o1)C1CC1,0%,·,3.2%,·

# The listing continues.
SMILES,Rango dissoc inh,miR-21 reporter,Rango-impB inh,GLA inh pH 4.5
COc1ccccc1CN(Cc1cc2cc(C)cc(C)c2[nH]c1=O)Cc1nnnn1CC1CCCO1 (stereo unspecified),-8%,-3%,3.1%,-7
Cc1ccc(S(=O)(=O)N2CCCCC2)c2nsnc12,15%,-9%,4.6%,·
COc1cccc(C2c3c(oc4ccc(Cl)cc4c3=O)C(=O)N2c2cc(C)on2)c1OC (stereo unspecified),?,-4%,0.4%,0
COc1ccccc1CNS(=O)(=O)c1cccc(S(=O)(=O)N2CCOCC2)c1,0%,-7%,0.6%,-3
CC(C)c1cccc(OCC(=O)Nc2ccc(S(=O)(=O)Nc3ccccn3)cc2)c1,13%,-7%,-4.4%,·
Cc1c(/C(O)=C2/C(=O)C(=O)N(CCN3CCOCC3)C2c2ccco2)cnn1-c1ccccc1 (stereo unspecified),-8%,·,0.4%,·
Nc1ccc2nn(-c3ccc(Cl)cc3)nc2c1,?,-37%,?,6
CC(Oc1ccccc1)C(=O)Nc1c2c(nn1-c1ccccc1)CS(=O)(=O)C2 (stereo unspecified),6%,-16%,1.9%,·
O=C(NC(Cc1ccccc1)C(=O)O)c1ccccc1 (stereo unspecified),-1%,-5%,-0.6%,1
O=C1OCc2ccc(NC(=O)C3CCCCC3)cc21,-6%,-6%,7.1%,-13
O=C(CSc1ncccn1)Nc1ccc(S(=O)(=O)N2CCCCC2)cc1,1%,-3%,-0.5%,8
O=C1CCCCCN1CP(=O)(O)CCc1ccccc1,-2%,-3%,1.2%,1
CCOc1ccc(N(CC)C(=O)c2cn(CC)c(=O)c3cc(OC)c(OC)cc23)cc1,19%,-6%,0.5%,·
N#Cc1cnc(SCC(=O)NNC(=O)COc2cccc3ccccc23)nc1N,-8%,-5%,?,-7
O=C(CSc1ncccn1)N/N=C/c1cccc(OC2CSC2)c1,-9%,-16%,4.9%,-8
CCCCCCC(=O)N/N=C/Cc1ccccc1,1%,-2%,8.4%,4
Cc1ccc(NC(=O)C2CCN(C(=O)c3ccco3)CC2)cc1,-14%,-1%,3.8%,·
CN1CCc2c(sc3c2C(=O)NC(c2ccccn2)N3)C1 (stereo unspecified),?,-4%,?,14
CN1C(=S)SC(/[N+]([O-])=C/c2c(F)cccc2Cl)C1(C)C (stereo unspecified),20%,-5%,-0.3%,-7
CCOC(=O)C1=C(COC(=O)CNC(=O)c2cc(OC)c(OC)c(OC)c2)NC(=O)NC1C (stereo unspecified),15%,·,-2.8%,·
Cc1ccc(C2=NN(C(=O)C3CCCO3)C(c3ccco3)C2)cc1 (stereo unspecified),-11%,-16%,-4.7%,2
Cc1ccccc1NC(=O)c1sc(NC(=O)COc2ccccc2)c(C#N)c1C,-4%,-10%,?,-1
CCc1nc2ccc(C(=O)N3CCN(c4ccccc4)CC3)cc2nc1CC,2%,2%&6%,-2.0%,·
CCCCOc1c(Br)cc(/C=C2\N=C(C)OC2=O)cc1OCC,-1%,-1%,-2.1%,-7
Cc1cccc(C)c1NC(=O)CN(C)C(=O)CN1C(=O)NC(C)(C)C1=O,-22%,·,2.5%,·

# Remaining list, next part.
SMILES,Rango dissoc inh,miR-21 reporter,Rango-impB inh,GLA inh pH 4.5
CC(=O)Nc1ccc(N(C(=O)c2ccco2)C(C(=O)NC2CCCC2)c2ccc(N(C)C)cc2)cc1 (stereo unspecified),-14%,-4%,-3.1%,·
O=C(CN1CCOCC1)NC1CC2CCC1C2 (stereo unspecified),2%,-2%,-0.6%,2
O=C(NN1C(=O)c2cc(Br)ccc2NC1c1cc(Br)cc(Br)c1O)c1ccncc1 (stereo unspecified),?,-4%,?,-11
O=C(Cn1c2ccc(F)cc2c2nc3n(c(=O)c21)CCS3)N1CCCC1,?,-2%,3.4%,·
CCN(CC)S(=O)(=O)N1CCC(C(=O)NCc2ccc3c(c2)OCO3)CC1,-13%,-13%,-2.0%,1
CCC1Oc2ccccc2N(CC(=O)NCCC2=CCCCC2)C1=O (stereo unspecified),-4%,-7%,-0.3%,2
CCCN=C1N(CC)C[C@@H]2[C@@H]3C(=O)N(Cc4ccccc4)C(=O)[C@@H]3[C@](Cc3ccccc3)(C(=O)OC)N12,-14%,·,-1.5%,·
C/C(=N/OC(=O)C1CC1)c1cc(-c2ccc(Cl)cc2)no1,-19%,-43%,-0.9%,-4
CC1CCCC(C)N1C(=O)c1ccc(CS(=O)(=O)c2ccccc2)cc1 (stereo unspecified),-13%,-5%,-1.7%,·
CCN1/C(=c2/s/c(=C3/C(=O)N(c4ccccc4)N=C3C)n(CC)c2=O)C=Cc2ccccc21,-10%,·,0.3%,·
O=C(COC(=O)c1ccccc1C(=O)c1ccc(Cl)cc1)NCCc1ccccc1,11%,5%,0.6%,1
C[C@H](NC(=O)c1nc[nH]c1C(=O)N[C@@H](C)c1ccccc1)C(=O)OC(C)(C)C,12%,-1%,7.1%,3
O=C(O)C1=NN(c2ccccc2)C(=O)CC1,-13%,-6%,-2.0%,·
COc1cc(OC)cc(C(=O)N[C@H](C(=O)Nc2nc(-c3ccc(OC)c(OC)c3)cs2)C(C)C)c1,-6%,0%,-3.3%,-8
COC(=O)[C@H](Cc1ccccc1)NC(=O)NCC1CCCO1 (stereo partly specified),18%,1%,-3.1%,-10
Cc1cc(NC(=O)CCNS(=O)(=O)c2ccc3[nH]c(=O)oc3c2)ccc1Br,-15%,0%,2.4%,·
Cc1ccc(C(=O)NC(=S)N2CCN(c3ccccc3F)CC2)cc1,6%,-21%,-1.3%,0
CCCOc1ccc(-c2c(C(=O)N/N=C/c3ccc(C)o3)nnn2-c2nonc2N)cc1,0%,0%,4.6%,·
c1ccc(OCCCCN2CCOCC2)cc1,-2%,-1%,-4.4%,3
O=C(NC1CCCC1)C(c1cccnc1)N(C(=O)c1ccco1)c1cccc(F)c1 (stereo unspecified),11%,2%,4.2%,·
O=C(COC(=O)c1ccc(Cl)nc1)Nc1cccc(S(=O)(=O)N2CCCCC2)c1,?,·,3.8%,·
CC(=O)Nc1ccc(S(=O)(=O)N2CCC(c3nc4ccccc4[nH]3)CC2)cc1,-5%,0%,2.5%,-11
Cc1c(NC(=O)C(Sc2ccccc2)c2ccccc2)cccc1[N+](=O)[O-] (stereo unspecified),-13%,0%,3.5%,-1
CN(C)C(CNC(=O)c1cnc(Cl)c(Cl)c1)c1ccccc1 (stereo unspecified),-7%,-2%,0.4%,·
COc1ccc(C(=O)OCC(=O)NC2CCCCCC2)cc1OC,19%,·,1.6%,·

# Random excerpt: five compounds from above, in no set order.
SMILES,Rango dissoc inh,miR-21 reporter,Rango-impB inh,GLA inh pH 4.5
c1ccc(OCCCCN2CCOCC2)cc1,-2%,-1%,-4.4%,3
O=C(Cn1c2ccc(F)cc2c2nc3n(c(=O)c21)CCS3)N1CCCC1,?,-2%,3.4%,·
O=C(CN1CCOCC1)NC1CC2CCC1C2 (stereo unspecified),2%,-2%,-0.6%,2
C[C@H](NC(=O)c1nc[nH]c1C(=O)N[C@@H](C)c1ccccc1)C(=O)OC(C)(C)C,12%,-1%,7.1%,3
C/C(=N/OC(=O)C1CC1)c1cc(-c2ccc(Cl)cc2)no1,-19%,-43%,-0.9%,-4

# The list goes on.
SMILES,Rango dissoc inh,miR-21 reporter,Rango-impB inh,GLA inh pH 4.5
OCCCn1c(-c2ccccc2)csc1=Nc1ccccc1,-12%,-1%,-2.0%,0[21.1 µM]
COC(=O)c1cc2n(n1)CCN(Cc1ccc(C)cc1)C2=O,22%,0%,-0.3%,-15
Cc1cccc(Cn2nc(-n3cccc3)c3c(C)cc(C)nc32)c1,11%,-1%,-1.3%,-5
CC(C)CC(=O)NC(=S)Nc1cccc2nsnc12,-13%,5%,?,5
O=C(CCC1CCCCC1)Nc1ccc(C(=O)c2ccncc2)cc1,7%,1%,1.3%,-6
CN(CC(=O)Nc1ccccc1C(=O)NC1CC1)Cc1ccc(Cl)s1,17%,·,-0.8%,·
CC(=O)c1cccc(NC(=O)CCn2c(=O)oc3ccccc32)c1,-9%,9%,1.2%,·
COc1cc(NC(=O)Nc2ccccc2)c(OC)cc1NC(=O)CN1CCCCC1,19%,0%,0.0%,-20
C=C1CCN(c2ccc(C(=O)NCc3ccc(C)cc3)cc2[N+](=O)[O-])CC1,4%,-14%,-1.1%,·
O=C(c1ccc(Cl)c([N+](=O)[O-])c1)N(Cc1cccc(Cl)c1)C1CCS(=O)(=O)C1 (stereo unspecified),15%,0%,3.1%,-8
CCN(CC)CCn1c(NCc2ccccn2)nc2ccccc21,2%,-7%,-1.1%,0
CC(=O)Nc1ccc(N2C(=O)CSC2c2c(F)cccc2Cl)cc1 (stereo unspecified),-4%,0%,-1.0%,11
O=C(NCCCN1CCOCC1)c1cccc(S(=O)(=O)N2CCOCC2)c1,3%,·,-1.0%,·

# Copied from the list.
# CCN(CC)CCn1c(NCc2ccccn2)nc2ccccc21 – GLA inh pH 4.5 = 0
# O=C(c1ccc(Cl)c([N+](=O)[O-])c1)N(Cc1cccc(Cl)c1)C1CCS(=O)(=O)C1 (stereo unspecified) – miR-21 reporter = 0%
# CC(=O)Nc1ccc(N2C(=O)CSC2c2c(F)cccc2Cl)cc1 (stereo unspecified) – miR-21 reporter = 0%

# From PubChem BioAssay

# An excerpt; count on the stated rates, not on these rows.
